HSV replic up = HSV replication enhancement | HSV replication augmentation in cells, fold increase | hit rate 0.005% among 220,000 | maximum fold increase;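 active = peak rise of 1.5-fold or more in the series; tested in PC3 cells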;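 also: first round at 10 µM; read as green reporter fluorescence; hits show the peak of a series up to 25 µM; 1 = signal of infected wells without compound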
RGS16-Gao = modulates binding between human RGS16 and Galphao; O15492+P09471; bead-based flow cytometry RGS16-Galphao binding, fluorescence; actives lie on both sides; binding response (% of control), % at 10 µM; hit rate 0.38% among 220,000; AID 1441;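 active = below 25% or above 175%, edge rows of some plates excepted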;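 also: Galphao activated by GDP with aluminum fluoride before binding; 100% = wells without compound and 0% = beads without RGS; some results beyond the cut were filed as inactive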
Target sequence (O15492 whole entry, looked up): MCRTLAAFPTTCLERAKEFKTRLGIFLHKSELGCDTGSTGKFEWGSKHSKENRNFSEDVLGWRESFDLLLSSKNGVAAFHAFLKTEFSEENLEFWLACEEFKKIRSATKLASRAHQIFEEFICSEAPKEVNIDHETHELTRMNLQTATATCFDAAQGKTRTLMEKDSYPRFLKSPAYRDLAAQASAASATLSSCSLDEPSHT
Target sequence (P09471 whole entry, looked up): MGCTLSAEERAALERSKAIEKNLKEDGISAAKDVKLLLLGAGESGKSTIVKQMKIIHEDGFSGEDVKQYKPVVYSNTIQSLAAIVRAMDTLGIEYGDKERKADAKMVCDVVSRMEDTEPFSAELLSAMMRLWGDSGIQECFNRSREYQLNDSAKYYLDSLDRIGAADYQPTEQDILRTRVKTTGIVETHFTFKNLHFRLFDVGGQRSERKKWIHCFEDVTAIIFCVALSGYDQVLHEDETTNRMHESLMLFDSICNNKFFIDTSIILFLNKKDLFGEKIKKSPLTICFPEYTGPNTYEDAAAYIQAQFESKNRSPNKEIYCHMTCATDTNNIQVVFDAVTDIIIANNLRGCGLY
Insulin prom inh = TRM-6 insulin promoter activity inhibition; hit rate 0.9% among 130,000; TRM-6 cells (human fetal islet line), insulin promoter-eGFP reporter, imaging; reporter expression induced with tamoxifen; inhibition, % at 2 µM;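 active = inhibition above the mean plus 3 SD, with well images judged a real hit on visual review, cut at about 60% in these data, passing the limit was not always enough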
GALR2 ag = activates the human galanin receptor 2; O43603; hit rate 0.48% among 140,000; activation, %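 (tested at 5 µM)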; GALR2-expressing cells, agonist activation read-out; AID 803;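 active = above mean plus 3 SD of all compounds, about 5% in these data, not always enough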;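 also: 0% = vehicle buffer wells and 100% = reference agonist at full effect; tested in CHO reporter cells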
Target sequence (O43603 whole entry, looked up): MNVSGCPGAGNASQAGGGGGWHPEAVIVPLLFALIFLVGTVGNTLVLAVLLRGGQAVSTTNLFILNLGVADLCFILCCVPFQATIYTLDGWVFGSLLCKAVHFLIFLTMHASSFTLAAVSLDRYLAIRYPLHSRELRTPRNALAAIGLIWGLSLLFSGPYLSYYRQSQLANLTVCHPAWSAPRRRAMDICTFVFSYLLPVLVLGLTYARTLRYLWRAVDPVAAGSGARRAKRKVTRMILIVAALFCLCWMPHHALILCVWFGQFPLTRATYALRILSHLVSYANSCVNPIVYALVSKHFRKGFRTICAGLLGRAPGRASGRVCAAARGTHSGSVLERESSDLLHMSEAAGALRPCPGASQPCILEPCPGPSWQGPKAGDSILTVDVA
PKD1 kinase inh = inhibitors of human PKD1 kinase | Q15139 | inhibition, %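 (about 10 µM by stock and volumes)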 | hit rate 0.056% among 200,000 | PKD1 kinase fluorescence polarization assay | AID 797;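 active = inhibition of 50% or more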;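 also: controls were vehicle for no effect and a reference inhibitor for full effect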
Insulin prom inh cell count = recorded beside Insulin prom inh, whose call it bears; normalized cell count, %; measured here: cell count, toxicity; reference of the scale not given here;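 cells exposed to compound for 48 h; stained nuclei by imaging scaled within each plate; lower means fewer cells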
HSV replic up primary fold = further read-out of HSV replic up, marked with its call; fold increase; compound at 10 µM; measured here: primary screen fold increase 10 uM; tested in PC3 cells;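 GFP signal in the first replicate; 1 = infected wells without compound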
Active calls of the source: *; i = inactive; nt = not tested or not shown.

SMILES	HSV replic up	HSV replic up primary fold	RGS16-Gao	Insulin prom inh	Insulin prom inh cell count	GALR2 ag	PKD1 kinase inh
O=c1oc(-c2cccs2)nc2sc3c(c12)CCCC3	i	0.93	76	68*	82*	-1.9	3
CCN(CC)C(=O)c1cn(CC)c(=O)c2cc(OC)c(OC)cc12	i	0.94	106	nt	nt	-2.1	-10
COc1ccc(OC)c(-n2c(=S)[nH]c3cc(C(=O)NCCCN4CCCC4=O)ccc3c2=O)c1	nt	nt	101	5	90	-1.9	-14
O=C(COC(=O)C1CC2C=CC1C2)Nc1ccccc1 (stereo not given)	i	1	102	-11	82	-1.0	-3
C/C(=N\N1CCN(c2ccc(Cl)cc2)CC1)c1ccco1	nt	nt	85	0	135	-2.2	4
S=C1NCN(Cc2ccco2)CN1	i	0.99	100	nt	nt	nt	nt
O=C(CS(=O)(=O)c1ccccc1)Nc1nc(-c2ccc(F)cc2)cs1	i	0.93	107	75*	212*	nt	-7
CC(C)(C)c1ccc(CN(Cc2ccccc2)C(c2ccccn2)c2nnnn2C(C)(C)C)cc1 (stereo not given)	i	0.99	101	-18	55	-2.9	3
CCSc1c(C(=O)NC)ccc2c1C(=O)c1ccccc1C2=O	i	0.9	109	-21	100	0.3	-5
Cc1ccc(C2(C)NC(=O)N(CCOc3ccccc3)C2=O)cc1 (stereo not given)	i	0.92	103	15	66	-4.8	-7
COc1ccc(-c2cc(C(F)(F)F)nc(N3CCCCCC3)n2)cc1	i	0.78	98	-47	94	-2.1	8
O=C(NCCc1ccccc1)c1nc(-c2cccs2)no1	i	0.84	94	nt	nt	nt	-3
COc1ccc(NC(=S)NNC(=O)OC(C)(C)C)cc1OC	i	1	102	21	85	-2.0	3
Cc1ccc(N2CC(C(=O)OCc3ccccc3F)CC2=O)cc1 (stereo not given)	i	0.88	104	41	108	-1.6	-1
COc1ccc([C@H]2[C@H](C(=O)C(C)(C)C)N3N=Cc4ccccc4C3C23C(=O)OC(C)(C)OC3=O)cc1 (stereo not given in full)	i	0.92	101	13	101	0.1	1
Cc1ccc(S(=O)(=O)N(CC(=O)O)Cc2ccco2)cc1	i	1	101	nt	nt	nt	nt
Nn1c(Cc2cccc3ccccc23)nnc1SCc1ccccc1Cl	i	0.91	92	-67	88	-1.3	6
N#CC1(Cc2ccc(Cl)cc2)c2ccccc2C=CN1C(=O)c1ccccc1 (stereo not given)	i	0.88	101	16	85	-0.9	0
COc1ccccc1NC(=O)N1CCCC1C(=O)NCc1ccc(F)cc1 (stereo not given)	i	1	100	-21	89	-0.3	1
C/C(=N\NC(=S)NCc1ccccc1)c1ccc2ccccc2c1OC(F)F	i	0.96	103	-40	184	nt	-3
CC(=O)c1cc(CN2CCN(C3CCCCC3)C(CCO)C2)cs1 (stereo not given)	i	0.97	101	nt	nt	nt	0
CCc1c(C)nc(N)nc1Cl	i	1.1	104	nt	nt	nt	nt
CSc1ccc(CN(C)CC(=O)Nc2c(F)cccc2F)cc1	i	0.84	149	8	74	nt	3
COC(=O)c1cccc(NC(=O)c2ccccc2)c1	i	1	107	nt	nt	nt	nt
O=C(NCc1nc2ccccc2[nH]1)C1=C[C@@H](C2CCCCC2)C[C@@H](OCc2ccc(CO)cc2)O1	i	0.85	104	nt	nt	nt	0
Cc1ccc(C)c(OC2=NS(=O)(=O)c3ccccc32)c1	i	0.98	104	-13	93	nt	-1
COc1ccnc(N2CCN(c3ccccc3)CC2)c1C#N	i	0.89	102	19	147	-2.6	8
Nc1ccc(Oc2ccc3c(c2)C(=O)N(CC2CCCO2)C3=O)cc1 (stereo not given)	i	1.1	99	nt	nt	nt	nt
COc1ccccc1NC(=O)Cn1c(CN2CCCCC2)nc2ccccc2c1=O	i	0.82	277	-19	89	-2.9	11
O=C(Nc1ccncc1)c1ccc2c(c1)C(=O)N(C1CCCCC1)C2=O	i	0.93	100	13	47	36*	6
CCOC(=O)c1sc2nc(CSc3ccccc3Cl)[nH]c(=O)c2c1C	i	1.1	100	-36	127	nt	-6
Cc1cc(=O)oc(C)c1C(=O)NCCN1CCOCC1	i	0.98	99	nt	nt	-2.8	8
CC1CC2(C)Oc3ccccc3C3OCC1(CO)C(C)C32 (stereo not given)	i	0.81	97	14	101	-2.5	-11
COc1ccc(C2(NC(C)=O)CCN(C(=O)c3ccco3)CC2)cc1	nt	nt	29	nt	nt	1.2	1
CC(=O)Nc1ccc(NS(=O)(=O)Cc2ccccc2)cc1	i	0.97	106	nt	nt	-2.1	-14
COc1ccc(C)cc1NC(=O)COCC(=O)O	i	0.98	98	32	58	-0.7	-6
O=C(CCS(=O)(=O)c1ccccc1)Nc1ccc(-c2nc3ccccc3s2)c(O)c1	i	0.95	105	-12	66	1.9	5
Cc1ccccc1-n1c(=O)c2ccccc2n2c(=O)[nH]nc12	i	0.89	89	56	142	-0.4	-7
CN(Cc1ccccc1)C(=O)CN(C1CCCCC1)S(C)(=O)=O	i	1	102	14	103	-3.4	5
Cc1cc(Cl)ccc1OCC(=O)Nc1nc(-c2cccs2)cs1	i	0.86	98	14	111	-1.0	5
CSc1ccccc1NS(=O)(=O)c1ccccc1	i	0.91	104	10	156	-2.7	-12
CNCC(O)COc1cccc(OC)c1 (stereo not given)	i	1	70	9	76	nt	-5
Cc1ccc(NC(=S)N2CCOCC2)c(C)c1	i	1	107	22	87	-1.8	-10
Cc1ccnc2nc(C(=O)Nc3nnc(-c4ccccc4)o3)nn12	i	0.85	83	40	110	nt	1
O=C(CCC1CCCN(C(=O)c2ccsc2)C1)N1CCN(c2ccccn2)CC1 (stereo not given)	i	0.92	87	nt	nt	nt	nt
COc1ccc(-c2cc(C(=O)NCCN3CCOCC3)c3ccccc3n2)cc1	i	0.64	102	-3	107	-2.9	5
CC(C)(C)C(=O)Nc1cc(S(=O)(=O)Nc2ccc(Cl)cc2)ccc1O	i	0.95	94	nt	nt	nt	-3
Cc1nn(C)c(C)c1S(=O)(=O)N1CCCC(C(=O)NCCc2ccc(Cl)cc2)C1 (stereo not given)	i	0.82	104	nt	nt	-1.7	0
O=C(c1ccccc1Cl)N(Cc1ccc(Cl)c(Cl)c1)N1C(=O)CCCC1=O	i	1.1	97	nt	nt	nt	-4
CCCCS(=O)CC(COC)OC(=O)c1ccccc1 (stereo not given)	i	1	98	nt	nt	nt	-3
Cc1nc2sc(C(c3cccs3)N3CCOCC3)c(O)n2n1 (stereo not given)	i	1	97	nt	nt	-0.1	-12
CC(C)(C)C1CCC(=NNC(=S)Nc2cccnc2)CC1 (stereo not given)	i	0.98	96	nt	nt	nt	2
O=c1nc2s/c(=C\c3ccco3)c(=O)n2nc1Cc1ccccc1	i	1.1	109	-31	113	-1.6	-1
COc1ccc(CNC(=O)c2nnn(Cc3ccc(OC)cc3)c2N)cc1	i	1.2	104	nt	nt	-2.1	-15
COc1ccc(Nc2nc(=O)[nH]nc2C)cc1	i	0.86	103	0	80	-2.5	-12
C=C(C)CCC1(C)NC(=O)N(c2ccccc2)N1 (stereo not given)	i	1.1	52	nt	nt	nt	nt
O=C(NCCC(c1ccccc1)c1ccccc1)c1ccc(Br)o1	i	0.98	100	3	99	-1.2	4
CC(=O)/C(=N\Nc1ccccc1)Sc1nncn1C	i	0.96	96	-38	78	-0.2	-2
CCOC(=O)Nc1ccc(C(=O)NCC2CCCO2)cc1 (stereo not given)	nt	nt	103	-24	80	-1.3	-4
C[C@]12CCC(=O)C=C1[C@H](O)C[C@@H]1[C@@H]2[C@@H](O)C[C@@]2(C)[C@H]1CC[C@]2(O)C(=O)CO	i	0.79	108	33	104	0.6	-6

(more compounds)
SMILES	HSV replic up	HSV replic up primary fold	RGS16-Gao	Insulin prom inh	Insulin prom inh cell count	GALR2 ag	PKD1 kinase inh
Cc1ccc(/C(C#N)=C\c2cn(C)c3ccccc23)cc1	i	1.1	97	71	104	-1.0	-2
COc1ccc(Nc2oc(-c3ccccc3)nc2C#N)cc1	i	0.86	101	nt	nt	nt	-1
CCOc1cc(/C=C2\SC(=O)N(CC(=O)Nc3ccccc3F)C2=O)cc([N+](=O)[O-])c1O	i	0.78	106	nt	nt	nt	1
CN1C(=O)c2cccc(NC(=O)CCc3ccccc3)c2C1=O	i	0.93	106	nt	nt	-3.9	-2
CC(C)NC(=O)COc1ccc(S(=O)(=O)N(C)Cc2ccccc2)cc1	i	0.94	98	nt	nt	nt	nt
CC(C)(C)c1nc2ccccc2c2nnc(SCC(=O)Nc3nccs3)n12	i	0.79	101	-19	50	-2.1	-5
CCOC(=O)NC(=O)c1cn(CCNCCO)c(=O)[nH]c1=O	i	0.98	105	nt	nt	nt	-5
Cc1noc(C)c1S(=O)(=O)Nc1ccccc1OC(F)(F)F	i	1	97	nt	nt	nt	nt
N#Cc1nc(-c2ccco2)oc1NCCCN1CCOCC1	i	0.91	128	50	101	-2.2	-21
Cc1ccc(S(=O)(=O)Nc2ccncc2)c(C)c1N(C)S(=O)(=O)c1ccc(F)cc1	i	0.95	108	-44	122	0.4	-6
O=C1OCC(c2ccccc2)=C1c1ccc(S(=O)(=O)N2CCOCC2)s1	i	1.1	96	-20	79	-0.1	-18
COc1cc2nc(Cl)nc(N3CCCCC3)c2cc1OC	i	0.87	99	nt	nt	nt	2
Cc1ccc(S(=O)(=O)NCC(=O)OCC(=O)Nc2ccccc2OC(F)F)cc1	i	0.97	128	nt	nt	0.8	-1
Cc1ccc(NC(=O)C2CCCCC2)c(O)c1	i	1.1	110	nt	nt	nt	3
CCO[C@H]1OC(C(=O)N2CCN(C)CC2)=C[C@@H](c2ccc3c(c2)OCO3)[C@@H]1CCCO	i	0.75	100	nt	nt	nt	1
CCN(CC)S(=O)(=O)c1cccc(-c2nnc(SCCOc3ccccc3)o2)c1	i	0.78	108	7	112	0.4	-1
O=C(NNC1=NCCN1Cc1ccccc1)c1cccc(C(F)(F)F)c1	i	0.9	106	nt	nt	nt	nt
Cn1nccc1C(=O)Nc1cccc(C(F)(F)F)c1	i	0.97	80	10	106	nt	-7
CCc1cc(=O)oc2c(C)c(O)c(CN(C)C)cc12	i	0.98	109	36	89	2.6	-4
CCC(C)c1ccc(NC(=O)C/C(C)=N/NC(=O)c2cnccn2)cc1 (stereo not given)	i	1	100	-19	79	-1.9	1
CCN(CC)S(=O)(=O)c1ccc(C(=O)N2CCc3ccccc32)cc1	i	0.92	109	-14	142	nt	11
COc1cc(/C=N/S(=O)(=O)CCc2ccccc2)ccc1O	i	0.9	96	13	102	-1.1	-13
O=C(N[C@@H](Cc1ccccc1)C(=O)NC1CCCCCC1)c1ccco1	i	0.88	110	0	117	-2.5	-4
CCOC(=O)/C(=C\c1ccc([N+](=O)[O-])o1)NC(=O)c1ccccc1	i	0.77	101	0	93	-0.6	7

Another view of two compounds above:
Cn1nccc1C(=O)Nc1cccc(C(F)(F)F)c1
  HSV replic up: i; HSV replic up primary fold: 0.97; RGS16-Gao: 80; Insulin prom inh: 10; Insulin prom inh cell count: 106; GALR2 ag: nt; PKD1 kinase inh: -7
CCc1cc(=O)oc2c(C)c(O)c(CN(C)C)cc12
  HSV replic up: i; HSV replic up primary fold: 0.98; RGS16-Gao: 109; Insulin prom inh: 36; Insulin prom inh cell count: 89; GALR2 ag: 2.6; PKD1 kinase inh: -4

5 compounds already listed, arranged by formula weight, highest first.
SMILES	HSV replic up	HSV replic up primary fold	RGS16-Gao	Insulin prom inh	Insulin prom inh cell count	GALR2 ag	PKD1 kinase inh
O=C(NNC1=NCCN1Cc1ccccc1)c1cccc(C(F)(F)F)c1	i	0.9	106	nt	nt	nt	nt
O=C(N[C@@H](Cc1ccccc1)C(=O)NC1CCCCCC1)c1ccco1	i	0.88	110	0	117	-2.5	-4
CCC(C)c1ccc(NC(=O)C/C(C)=N/NC(=O)c2cnccn2)cc1 (stereo not given)	i	1	100	-19	79	-1.9	1
COc1cc(/C=N/S(=O)(=O)CCc2ccccc2)ccc1O	i	0.9	96	13	102	-1.1	-13
CCc1cc(=O)oc2c(C)c(O)c(CN(C)C)cc12	i	0.98	109	36	89	2.6	-4

Bioassay records (PubChem)
